Assay outcomes: PubChem BioAssay, several laboratories
Sa RN4220 lethal: growth inhibition of S. aureus RN4220, primary screen, OD600. 16 h. inhibition, % (concentration not given with the values). 330,000 compounds, 0.33% hits. AID 1259311, 2017;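 active means z-score of -3 or lower and OD600 up to 0.18 on both plates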;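 further: plate controls were untreated cells for no effect and reference antibiotic for full effect; stock transfer was 100 nL into about 80 µL; one replicate is shown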
PrP 5UTR inh: inhibition of PrP 5' UTR reporter expression. cell-based PrP 5' UTR mRNA reporter, plate reader. inhibition, % (concentration not given with the values). 340,000 compounds, 0.35% hits;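 active means every replicate at 50% or more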;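 further: 0 = median of the neutral control wells; tested in H4 reporter cells; numbers are from one replicate; inactives centre near -14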
Autofluor counter: compound fluorescence in toxin protease inhibitor counterscreen; compound autofluorescence counterscreen, microsphere flow cytometry; hits give high values; fluorescence intensity (concentration not given with the values); 360,000 compounds, 3.1% hits;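 active means at least 3 SD above the mean of all compounds, about 16000 in these data; inconclusive means too few beads counted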;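 further: 100 nL of 1 mM stock went into each well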
ugtP null kill: growth inhibition of ugtP-null S. aureus, primary screen, RN4220 ugtP deletion, OD600. 16 h; some inactives read as strong as hits. growth inhibition, % (test concentration not listed). 330,000 compounds, 0.54% hits;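 active means z-score under -3 and OD600 up to 0.15 on both plates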;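 further: plate controls were untreated wells for no effect and antibiotic for full effect; wells of about 80 µL received 100 nL stock; the first replicate is given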
Mtb hypoxia inh: PubChem AID 1159583; M. tuberculosis hypoxia-regulated fluorescent reporter, fluorescence; fluorescence inhibition, % (concentration not given with the values); 300,000 compounds, 0.1% hits;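 active means 35 to 45% if threefold the growth effect, above 45% if 1.5-fold the growth effect; inactive means the rest, general growth blockers included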;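 further: wells of about 50 µL received 100 nL stock; 0% = vehicle wells and 100% = reference inhibitor wells; whole bacteria with a GFP reporter of the hypoxia response; strong numbers were not always called active; many hits fall short of the cut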
BJeLR lethal: MLPCN primary cell-based screen for lethality selective to Ras in HRASV12 cells | 300,000 compounds, 0.17% hits | AID 1554, 2009 | BJeLR (HRASV12) viability, CellTiter-Glo ATP luminescence, 48 h; reference of the scale not given here | inhibition, % (test concentration not listed);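 active means replicate mean above 50%; inconclusive means above 50% but judged a plate artefact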;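 further: 50 nL library stock added to about 25 µL; numbers are from one replicate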
Mtb hypoxia inh growth: recorded beside Mtb hypoxia inh, whose call it bears; growth inhibition, %; measured here: M. tuberculosis growth (absorbance);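 0% = vehicle and 100% = reference antibiotic; read after six days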
Numbers without * were called inactive; ? = inconclusive; . = no result given; & = joins results of further samples.

mol	Sa RN4220 lethal	PrP 5UTR inh	Autofluor counter	ugtP null kill	Mtb hypoxia inh	Mtb hypoxia inh growth	BJeLR lethal
CSCCC(NC(=O)OCc1ccccc1)C(=O)NCc1cccnc1 (stereo not given)	3.2	-40	3660	4	-1	2	1
Cc1cc(NC(=O)c2ccccc2)nc(C)n1	5.4	-11	4420	16	6	6	-2
CCN(Cc1ccccc1)c1ccc(/C=N/NS(=O)(=O)c2cccc([N+](=O)[O-])c2)cc1	.	-12	2128	.	.	.	-7
CCOc1ccc(NC(=O)N2CCN(c3nc4ccccc4s3)CC2)cc1	-12	-22	2507	-5	-6	-4	-2
Cc1cc(Nc2ccccc2Cl)nc(-c2ccccc2O)n1	-11	.	4056	39	3	-1	-10
COc1ccc2[nH]cc(C(=O)CN3CCCCC3C)c2c1 (stereo not given)	-18	.	.	-3	-1	1	-1
CC(CCc1ccccc1)NC(=O)Cc1ccc(Br)cc1 (stereo not given)	-3.6	-60	2915	12	0	0	-8
C=CCNC(=O)c1cc(-c2ccc3c(c2)OCO3)on1	3.6	-7	3637	3	4	4	3
COc1cc(/C=C/c2ccc3cccc(O)c3n2)cc(OC)c1OC	0.1	-20	3372	2	-4	-7	56*
Cc1ccc(OCCCC(=O)Nc2nncs2)cc1	3.3	-19	3228	9	4	-2	-4
CCN(C(=O)C(C)Cl)c1ccccc1 (stereo not given)	4.0	-12	4125	4	4	-10	2
COc1ccc(Cl)cc1/C=N/NC(=O)c1c(-c2ccccc2)noc1C	.	-7	6367	.	.	.	-4
Cc1ccc(Nc2nc(NN=Cc3c[nH]c4ccccc34)nc(N3CCOCC3)n2)cc1	4.0	.	.	-17	3	6	.
Cc1ccc(C)c(NC(=O)COC(=O)COc2cccc3c2OC(C)(C)C3)c1	1.9	-3	?	1	8	6	8
O=C(COC(=O)c1cc([N+](=O)[O-])ccc1N1CCOCC1)NCCc1ccccc1	3.6	-3	5562	3	-10	-7	0
Cc1cc(C(=O)Cn2nc(C(=O)O)c3ccccc3c2=O)c(C)n1CCc1ccc(F)cc1	3.4	-32	5044	8	-1	12	-6
CCn1c(=O)c(C(=O)CN2CCN(S(=O)(=O)c3ccccc3)CC2)c(N)n(Cc2ccccc2)c1=O	13	-5	4362	-69	-7	-2	2
O=C(CSc1nncn1-c1ccccc1)Nc1cc(F)ccc1F	-0.6	-7	3896	5	3	7	-1
Cc1cc2cc(CNC(=S)Nc3ccc(OC(F)(F)F)cc3)ccc2n1C	-3.7	-6	1752	-1	6	11	-23
O=C(COc1ccc(Cl)cc1)N(Cc1cccs1)C1CCS(=O)(=O)C1 (stereo not given)	3.4	11	6107	0	1	4	6
COc1ccc(NS(=O)(=O)c2ccc3c(c2)CCCN3C(C)=O)cc1	-0.5	-19	5834	-2	2	8	5
COc1ccc(OCCSc2nc3ccccc3n2CCC(=O)O)cc1	1.8	-16	.	17	1	-3	-13
CC(C)(C)c1ccc(COc2ccsc2C(=O)O)cc1	14	-22	1911	25	16	10	4
C=CCn1c(C)c(C=C2C(=O)NC(=O)NC2=O)c2ccccc21	0.2	-6	3438	6	-3	0	-3
Cc1nnsc1C(=O)N1CCCC(C(=O)c2ccc(C(F)(F)F)cc2)C1 (stereo not given)	3.1	-28	2198	6	12	2	-7
Cc1nnc(SC(C)C(=O)NC2CCCCC2C)n1N (stereo not given)	1.1	-27	?	3	6	4	1
CCOc1cc(C=NNC(=O)CN2CCOCC2)ccc1OCc1ccc(F)cc1	-0.1	.	.	0	0	4	.
COC(=O)c1sccc1NC(=O)Nc1cccc(C)c1	3.5	-18	2643	14	17	13	-4
COC(=O)CSc1nnc(-c2c[nH]c3ccccc23)o1	7.5	-18	3633	1	13	11	-8
Oc1ccccc1-c1cc(-c2cccc(F)c2)n[nH]1	-6.9	-79	?	-2	12	5	8
COc1ccc(-c2c(C)oc3cc(O)cc(O)c3c2=O)cc1OC	4.1	-34	5416	-11	-3	1	-2
CCCN(CCC)C1Sc2ccc(C(=O)OC)cc2NC1=O (stereo not given)	1.3	-4	19484*	13	8	9	5
O=C(Cn1cnc2c(cnn2-c2ccc(F)cc2)c1=O)NCC1CCCO1 (stereo not given)	-14	-15	2359	-1	1	7	.
Cc1ccc(Sc2ncccc2C(=O)NCc2cc([N+](=O)[O-])ccc2O)cc1C	4.9	6	5835	2	-3	9	5
CC(=O)c1cccc(NC(=O)CN(C)S(=O)(=O)c2cccc3nsnc23)c1	-1.8	-8	4935	-1	6	-5	6
COc1ccc(O)c(C=NNC(=S)Nc2cccc(S(=O)(=O)N(C)C)c2)c1	8.0	.	.	-17	8	1	.

In the list so far, three contain a nitro group on carbon.
mol	Sa RN4220 lethal	PrP 5UTR inh	Autofluor counter	ugtP null kill	Mtb hypoxia inh	Mtb hypoxia inh growth	BJeLR lethal
CCN(Cc1ccccc1)c1ccc(/C=N/NS(=O)(=O)c2cccc([N+](=O)[O-])c2)cc1	.	-12	2128	.	.	.	-7
O=C(COC(=O)c1cc([N+](=O)[O-])ccc1N1CCOCC1)NCCc1ccccc1	3.6	-3	5562	3	-10	-7	0
Cc1ccc(Sc2ncccc2C(=O)NCc2cc([N+](=O)[O-])ccc2O)cc1C	4.9	6	5835	2	-3	9	5

More entries:
mol	Sa RN4220 lethal	PrP 5UTR inh	Autofluor counter	ugtP null kill	Mtb hypoxia inh	Mtb hypoxia inh growth	BJeLR lethal
O=C(Cc1ccccc1)Nc1cccc(-c2nnc(-c3ccco3)o2)c1	0.8	5	5441	-16	.	.	6
COc1cc(CNCc2ccncc2)cc(Br)c1OCc1ccccc1F	0.2	-9	10770	54	-3	14	11
Cc1ccc2c(C)c(C(=O)NCCN3CCOC3=O)oc2c1C	4.3	-11	5887	4	4	-2	-6
O=C(Nc1cccc(S(=O)(=O)N2CCCCCC2)c1)C1CCN(C(=O)c2ccc(F)cc2)CC1	0.8	-2	.	-1	-3	15	-2
Oc1c(C=Nc2ccccn2)sc2ccccc12	8.3	.	.	-1	13	0	.
CCCCN(C)C(=O)CNC(=O)c1nn(-c2ccc(OC)cc2OC)c(=O)c2ccccc12	2.5	-19	3196	12	10	5	0
Cc1ccc(Nc2nc(N)nc(CN3CCCCCC3)n2)cc1	0.3	-10	5435	-1	.	.	5
Cc1cc(C(=O)Nc2ccccc2Cl)n(-c2ccccc2)n1	5.6	-19	3725	11	11	11	-11
Cc1nc(NCCN)c(C#N)c2c1COC(C)(C)C2	3.0	5	2106	4	.	.	8
O=C(CSc1nc(=O)n2ccccc2n1)Nc1ccc2c(c1)OCO2	-3.4	-16	?	6	1	3	-4
CCCCOc1cccc(-c2nnc(N)s2)c1	-8.5	-26	3386	-10	9	1	-12
CC(C)n1c(CCC(=O)O)ccc1-c1ccccc1	2.3	-19	4553	-3	.	.	-1
O=C1CCCN1CC(O)CS(=O)(=O)Cc1ccccc1 (stereo not given)	6.2	-8	3891	-5	4	-1	-2
COc1cccc(N2C(=O)C3NN=C(C(=O)CN4C(=O)c5ccccc5C4=O)C3C2=O)c1 (stereo not given)	2.7	.	6148	1	16	3	-8
O=S(=O)(NCCc1ccc(F)cc1)c1cccc2cccnc12	4.2	1	4432	-3	-2	-1	-11
CCOc1ccc(S(=O)(=O)NN=C2CCCC(=O)C2)cc1	2.3	.	.	4	18	12	.
CCOC(=O)c1ccc(NC(=O)C2CCN(S(=O)(=O)c3c(C)nn(C)c3C)CC2)cc1	2.9	-9	6011	-7	1	0	-5
Cc1ccc(NC(=O)CSc2nc(N)c3c4c(sc3n2)CSC(C)(C)C4)cc1	2.8	-10	2565	-4	-1	1	-1
COc1ccccc1/C=C/C=Nn1c(-c2cc(C)[nH]n2)n[nH]c1=S	1.8	.	.	-4	-2	0	.
Cc1ccc(S(=O)(=O)NC(=O)NCCCN2CCOCC2)cc1	2.3	-30	3422	4	-1	-4	3
Cc1ccccc1OCc1nc(-c2ccc(-n3cccc3)cc2)no1	-2.7	-18	4984	13	5	1	8
CCOCCCNCc1cccc(OC)c1	-0.6	-24	?	-4	2	4	-1
N/C(=N\OC(=O)Cc1cccs1)c1ccc(Cl)cc1	3.2	-51	3687	12	5	3	14
CCC(Sc1nc(C)cc(C)n1)C(=O)Nc1ccc(Cl)cn1 (stereo not given)	3.0	-7	3488	11	14	6	-1
Cn1c(CNc2nc3ccccc3n2C)nc2ccccc21	0.4	-32	3751	-3	1	7	0
COc1cccc(C(=O)CSc2nc3cccnc3n2C)c1	3.7	-2	10012	-2	-7	-2	-10
CC(C)C(C(=O)Nc1ccccc1)N1C(=O)c2ccccc2C1=O (stereo not given)	0.7	-10	5668	11	4	10	0
Cc1noc(C)c1CSCC(=O)N(C)CC(=O)Nc1ccc(F)c(F)c1F	3.8	-22	6481	2	-4	-4	0
CCOC(=O)CN1C(=O)NC(c2cccs2)C(C(=O)OC)=C1C (stereo not given)	2.2	.	.	-7	-2	6	.
Cc1cccc(OC(C)C(=O)N2CCN(Cc3ccc4c(c3)OCO4)CC2)c1 (stereo not given)	4.9	-19	4399	3	-1	-3	-9
CCOc1ccccc1NC(=O)CN(c1ccc(OC)cc1OC)S(=O)(=O)c1ccccc1[N+](=O)[O-]	0.5	-66	2644	-15	-7	2	-7
Cc1cc(C)n(C(=O)COc2ccc([N+](=O)[O-])cc2)n1	2.0	-24	2420	1	9	4	1
CCOc1cc(C(=O)Nc2c3c(nn2C(C)(C)C)CS(=O)C3)cc(OCC)c1OCC (stereo not given)	3.0	-4	2523	-1	.	.	0
Cc1ccc(-n2c3nc(=O)[nH]c(=O)c-3cc3cc([N+](=O)[O-])ccc32)cc1	1.4	-24	9000	2	-7	-11	5
O=C(O)CSc1cccc2cccnc12	0.8&-0.3	13&-17	7236&4638	-3&9	.	.	6&-7
CN(C)/C=N/c1ncc(C(=O)c2ccc(-c3ccccc3)cc2)s1	.	-13	4524	.	.	.	-1
O=C(CSCc1ccc([N+](=O)[O-])cc1)NC1CC2CCC1C2 (stereo not given)	3.4	-13	2467	2	1	-1	-6
COc1cc(C2NC(=O)NC(C)=C2C(=O)OCc2ccccc2)ccc1O (stereo not given)	5.9	-13	8167	-4	-5	0	0
CCOC(=O)/C(=C/c1ccccc1)NC(=O)c1ccco1	9.1	-8	1954	0	14	7	10
Cc1cc(C)nc(Nc2ccc(F)cc2)n1	3.5	-10	.	2	10	1	2
COc1cc2c(c(OC)c1)C(c1ccncc1)CC(=O)N2 (stereo not given)	0.2	-18	5589	3	10	10	.
CCOC(=O)c1ccc[n+](CC(=O)Nc2cc(C(F)(F)F)ccc2Cl)c1	-2.3	-21	4629	6	14	11	-4
CC(=O)c1c(N2CCCC2)nc(=S)n(-c2ccccc2)c1C	2.2	-27	9763	-1	10	2	0
COCCn1c(COc2ccccc2)nnc1SCC(N)=O	-1.5	-5	21005*	-4	-12	-2	.
CC(C)(C)OC(=O)NCCc1nnc(S(=O)(=O)Cc2ccc(Cl)cc2Cl)o1	17	-8	2854	9	.	.	7
COc1ccc(C=NNC(=O)c2nnn(-c3nonc3N)c2-c2cccs2)c(OC)c1	3.0	.	.	4	6	8	.
CNC(=O)c1ccsc1NC(=O)CCS(=O)(=O)c1ccc(Cl)cc1	2.6	-1	6069	4	13	0	-4
N#Cc1c(-c2ccccc2)nc(-c2ccncc2)[nH]c1=O	2.3	11	2480	-1	0	12	-1
Cc1c(C=O)c2ccccc2n1CC(=O)NCc1ccc2c(c1)OCO2	-3.7	-16	2569	23	0	0	3
Cc1cccc(OCc2nc3ccccc3n2C)c1	6.8	-51	3857	4	15	3	0
CNC(=S)N=CNOCc1c(Cl)cccc1Cl	4.4	.	.	-40	.	.	.
CC(=O)C1=C(C)OC(N)=C(C(=O)OC(C)C)C12C(=O)Nc1ccccc12 (stereo not given)	4.4	0	4094	-1	7	2	-1
